Screening data as filed in PubChem BioAssay.
Mtb hypoxia rep: reduces hypoxia-regulated biosensor signal in M. tuberculosis. AID 1159583. M. tuberculosis hypoxia-regulated fluorescent reporter, fluorescence. hit rate 0.1% among 300,000. fluorescence inhibition, % (concentration not given with the values);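 active = 35 to 45% if threefold the growth effect, above 45% if 1.5-fold the growth effect; inactive = the rest, general growth blockers included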;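 note: wells of about 50 µL received 100 nL stock; 0% = vehicle wells and 100% = reference inhibitor wells; whole bacteria with a GFP reporter of the hypoxia response; strong numbers were not always called active; many hits fall short of the cut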
ugtP null kill: compounds lethal to S. aureus RN4220 ugtP deletion mutant | hit rate 0.54% among 330,000 | growth inhibition, % (no concentration beside the values) | OD600 growth, 16 h; some inactives read as strong as hits;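 active = z-score under -3 and OD600 up to 0.15 on both plates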;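 note: plate controls were untreated wells for no effect and antibiotic for full effect; wells of about 80 µL received 100 nL stock; the first replicate is given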
Bead autofluor: counter-screen for toxin protease inhibitors: compound fluorescence. compound autofluorescence counterscreen, microsphere flow cytometry; hits give high values. fluorescence intensity (test concentration not listed). hit rate 3.1% among 360,000;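 active = at least 3 SD above the mean of all compounds, about 16000 in these data; inconclusive = too few beads counted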;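 note: 100 nL of 1 mM stock went into each well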
PrP UTR inh: inhibition of PrP 5' UTR reporter expression. cell-based PrP 5' UTR mRNA reporter, plate reader. inhibition, % (no concentration beside the values). hit rate 0.35% among 340,000. AID 488862;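 active = every replicate at 50% or more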;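 note: 0 = median of the neutral control wells; tested in H4 reporter cells; numbers are from one replicate; inactives centre near -14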
RN4220 kill: kills Staphylococcus aureus RN4220. S. aureus RN4220 growth, OD600, 16 h. inhibition, % (test concentration not listed). hit rate 0.33% among 330,000;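 active = z-score of -3 or lower and OD600 up to 0.18 on both plates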;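 note: plate controls were untreated cells for no effect and reference antibiotic for full effect; stock transfer was 100 nL into about 80 µL; one replicate is shown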
BJeLR lethal: kills HRASV12-expressing BJeLR cells; BJeLR (HRASV12) viability, CellTiter-Glo ATP luminescence, 48 h; reference of the scale not given here; inhibition, % (test concentration not listed); hit rate 0.17% among 300,000;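 active = replicate mean above 50%; inconclusive = above 50% but judged a plate artefact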;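 note: 50 nL library stock added to about 25 µL; numbers are from one replicate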
Mtb hypoxia rep growth: second read-out of Mtb hypoxia rep, no call of its own (marks repeat the call); growth inhibition, %; measured here: M. tuberculosis growth (absorbance);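 0% = vehicle and 100% = reference antibiotic; read after six days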
Starred values were filed as active, the others as inactive; u = inconclusive; x = no result given; & = joins results of further samples. Not a hit list (roughly 3.9% active in at least one column).

Preview (2 entries):
SMILES	Mtb hypoxia rep	Mtb hypoxia rep growth	ugtP null kill	Bead autofluor	PrP UTR inh	RN4220 kill	BJeLR lethal
S=C(NN=C1CCCCCC1)Nc1ccc(Cl)cc1	1	-5	23	10902	-15	-3.8	6
C=CCC1CCCC(=O)N2CCC(O)C12 (stereo not given)	20	14	1	x	x	4.9	x

The listing, from the start:
SMILES	Mtb hypoxia rep	Mtb hypoxia rep growth	ugtP null kill	Bead autofluor	PrP UTR inh	RN4220 kill	BJeLR lethal
S=C(NN=C1CCCCCC1)Nc1ccc(Cl)cc1	1	-5	23	10902	-15	-3.8	6
C=CCC1CCCC(=O)N2CCC(O)C12 (stereo not given)	20	14	1	x	x	4.9	x
CC(C)n1c(=S)[nH]c2cc(C(F)(F)F)ccc21	17	-6	-3	4170	-4	0.8	-2
C[C@]12CCC3c4ccc(OCC(=O)O)cc4CCC3C1CCC2=O (stereo not given in full)	0	0	7	4160	-21	-0.4	9
CCN(CC)c1ccc(C(=O)OCC(=O)NC(C)(C)C)cc1	3	6	14	4317	-14	7.5	2
O=C(c1cc(-c2ccc(Cl)cc2)nc2ccccc12)N1CCOCC1	-13	-3	0	5197	-6	-1.2	3
Cc1ccc(S(=O)(=O)N(CC(=O)Nc2ccccc2C(=O)O)c2cccc(Cl)c2C)cc1	0	8	-8	3190	-9	20	5
O=C(C[C@H]1C[C@H](C(=O)N2CCOCC2)[C@@]2(CCC3CCCC3)c3[nH]c4ccc(Cl)cc4c3CCN2C1=O)NCCCn1ccnc1	4	16	-9	3725	-17	11	x
C=C(C)C(=O)Nc1cccc(C2=NOC3(C2)C[C@@H](C(N)=O)N(C(=O)c2cc([N+](=O)[O-])cc([N+](=O)[O-])c2C)C3)c1 (stereo not given in full)	x	x	x	3352	-27	x	11
CCOc1ccc(C=NOCC(=O)NCc2cccs2)cc1	-3	4	11	x	x	8.6	x
COc1ccc(C(=O)Nc2ccccc2C(=O)NCc2cccnc2)cc1	4	8	9	5135	-12	5.4	6
Cc1ccc2oc3c(SCc4nc5ccccc5[nH]4)nc(C)nc3c2c1	5	5	35	4234	-15	29	x
CCSc1nnc(NC(=O)CCCOc2ccc(C)cc2)s1	5	4	8	3624	-23	2.0	5
Cc1ccc(Nc2nc(N/N=C/c3c[nH]c4ccccc34)nc(N3CCOCC3)n2)cc1	x	x	x	2292	4	x	4
O=C(Nc1ccc(Cl)cc1)Nc1ccon1	-2	0	-8	6518	-16	-1.3	20
Cc1cc(C)c2c(N)c(C(=O)Nc3cccc(C)c3C)sc2n1	11	-5	3	3834	-46	1.3	0
CCN(CC)C(=N)N1c2ccccc2CCC1C (stereo not given)	14	1	6	4267	-7	6.7	4
O=C(OC1CCOC1=O)c1cc(-c2ccc(Cl)cc2)nc2ccccc12 (stereo not given)	12	1	-2	9140	-18	5.3	1
CCC(=NCCCn1ccnc1)c1c(O)n(Cc2ccccc2)c(=O)[nH]c1=O	4	-6	-2	9730	-18	-0.6	2
Cc1cc(NS(=O)(=O)c2ccc(NC(=O)CCCOc3ccccc3C)cc2)no1	19	13	6	3585	-29	2.2	-4
COC(=O)c1ccc(/C=C2/SC(=S)N(CCCC(=O)Nc3ccccn3)C2=O)cc1	10	4	-1	2470	-42	4.0	4
O=C(Cc1nnc(NC(=O)Nc2ccc(Cl)cc2)s1)NCc1ccccc1	2	11	8	2024	-3	12	-2
CC(C)c1ccc(S(=O)(=O)N2CCN(C(=O)CCNS(=O)(=O)c3ccccc3F)CC2)cc1	15	2	6	5663	-6	2.6	0
CCc1nccn1S(=O)(=O)c1ccc2ccccc2c1	-4	10	-7	3021	-34	2.5	4
CC(C)Oc1ccc(CCC(=O)NNC(=O)c2ccccc2C(=O)O)cc1	16	1	0	3832	-29	0.6	6
COc1ccccc1S(=O)(=O)Nc1ccc2nc(C)sc2c1	24	11	7	2850	-9	4.8	x
N#Cc1cn(Cc2ccncc2)c(=O)[nH]c1=O	5	6	3	2654	-15	4.0	-15
CCCCNc1c(-c2cccc(-c3ccc(OC)cc3)c2)nc2ccc(C)cn12	15	2	34	3638	-23	17	-4
Cc1cc(C)n(CCNC(=O)c2ccc3c(c2)OCO3)n1	0	-7	5	3269	-27	6.3	-10
CCCCSc1nnc2[nH]c(=O)cc(N)n12	7	7	2	9510	x	2.2	3
CC(C)OC(=O)C(C#N)c1nc2ccccc2nc1N1CCN(Cc2ccccc2)CC1 (stereo not given)	x	x	9	2962	-3	-7.4	-9
O=C(CCn1cccc1)Nc1cc(F)ccc1F	8	3	-4	2510	-9	-3.4	4
Cc1cc(Cl)ccc1N1C(=O)CC(SCCC(=O)O)C1=O (stereo not given)	x	x	-5	4723	7	0.6	4
CCOC(=O)c1ccccc1NC(=O)N[C@@H](C)C(=O)OC	3	7	-4	7901	x	-3.2	4
C[N+]12CCCCC1C(COC(=O)c1ccc3c(c1)OCO3)CCC2 (stereo not given)	1	-2	7	11163	-8&-18	2.2	8
O=c1c(Oc2ccccc2Br)c(C(F)(F)F)oc2c(CN3CCCC3)c(O)ccc12	6	-6	2	5748	-11	4.7	-6
CCOC(=O)C1=NN(c2ccc(C)cc2)C2(S1)SC(C(C)=O)=C(C)N2c1ccccc1 (stereo not given)	9	9	6	6670	-12	1.7	3
CCn1c(SCC(=O)NNC(=O)c2ccc(OC)cc2)nnc1-c1ccco1	-2	-1	7	4349	-13	3.4	7
CCN(CC(=O)Nc1c(F)cccc1F)C(=O)c1cccc(-n2cnnn2)c1	-1	-4	3	5852	-7	1.3	x
COc1cc(Cl)ccc1OCc1cc(C(=O)N2C[C@H]3CC[C@H]2C3)no1	-2	8	0	8208	-50	-1.2	-3
O=C(CCn1cnnn1)Nc1ccc(Cl)c(Cl)c1	-1	-1	-4	2146	-18	1.4	-3
C#CCNC(=O)C1=C[C@H](C(C)(C)C)C[C@H](OCc2ccc(CO)cc2)O1	x	x	x	4031	-2	x	3
COCCN1Cc2cccc(C(=O)N3CCN(c4cc(C)ccc4C)CC3)c2C1=O	4	1	1	5791	-5	-2.0	7
N#Cc1ccccc1NC(=O)CC1c2ccccc2Oc2ccccc21	11	3	4	9965	-24	2.8	7
O=C(O)C1CSC2(CCN(Cc3ccccc3)CC2)N1 (stereo not given)	4	6	-1	11180	-27	3.6	8
O=C(NCc1ccccc1Cl)c1ccc(S(=O)(=O)N2CCCC2)cc1	-5	-2	3	3297	-45	-0.1	x
CC(=O)c1cc2c(cc1NC(=O)CN(C)S(=O)(=O)c1cccs1)OCO2	5	11	-2	5751	-18	4.2	x
CN(CC(=O)Nc1c(Cl)cccc1Cl)CC(=O)N(C)C1(C#N)CCCCC1	13	11	4	3679	2	3.6	x
COc1ccc(OC)c(C2=NS(=O)(=O)N(C)C(C(=O)Nc3cccc(C(C)=O)c3)=C2)c1	-7	-4	7	5550	0	4.9	-6
CC1C(=O)N2CCCc3cc(S(=O)(=O)Nc4ccccc4F)cc1c32 (stereo not given)	-9	-5	1	4643	-37	5.0	6
CN(CCc1cn[nH]c1)Cc1nc(Cc2ccccc2F)no1	5	8	12	2290	-14	0.3	8
O=C(Nc1cccs1)Nc1c(F)c(F)cc(F)c1F	-1	2	2	9485	-20	4.3	6
COc1ccc(Cn2ccnc2CO)cc1[N+](=O)[O-]	6	1	-2	4183	-9	1.0	3
CCN(c1ccccc1)S(=O)(=O)c1ccc2[nH]c(=O)c(=O)[nH]c2c1	1	-2	10	3596	-24	3.4	0
O=C(Nc1cccc2ccccc12)C(=O)C1C(=O)Nc2ccccc21 (stereo not given)	7	13	-15	4928	-7	14	8
Cc1ccc(CC2S/C(=C(/C#N)C(=O)N3CCOCC3)N(c3ccccc3)C2=O)cc1 (stereo not given)	-7	-6	15	2503	0	6.5	-2
CCS(=O)(=O)c1ccc2c(c1)N(S(=O)(=O)c1ccccc1)CC(C(=O)O)O2 (stereo not given)	-1	3	5	3921	-4	6.7	4
O=C(CN1CCN(S(=O)(=O)c2cccs2)CC1)N1CCCCC1	2	-4	7	4799	-32	3.3	x
Cc1cccc([N+](=O)[O-])c1C(=O)O	-4	-2	9	5970	8	4.8	x
CCn1ncc(-c2cc(C(=O)O)no2)c1C	17	7	3	x	-27	4.6	-5

(cont.)
SMILES	Mtb hypoxia rep	Mtb hypoxia rep growth	ugtP null kill	Bead autofluor	PrP UTR inh	RN4220 kill	BJeLR lethal
C/C(=N\NC(=O)c1ccccc1NC(=O)c1ccc(Cl)cc1)c1ccncc1	x	x	x	2689	76*	x	132*
Cc1c(CC(=O)N[C@@H](C)C(=O)O)c(=O)oc2cc3oc4c(c3cc12)CCCC4	-12	8	1	3922	-31	0.4	1
O=C(NCc1ccco1)C1CC(c2c(Cl)cccc2Cl)=NO1 (stereo not given)	23	15	3	3942	-38	4.7	-1
COc1ccc(C=NNC(=O)C(N)=O)c(OC)c1OC	2	5	2	x	x	5.2	x
Cc1ccc(C(=O)NC(=S)Nc2ccc(Oc3ccc(Cl)cc3)cc2)cc1	9	22	66	u	-10	3.8	-11
CC(=O)c1cccc(NC(=O)N2CCCC(C(=O)c3cc(F)ccc3F)C2)c1 (stereo not given)	8	6	9	2128	-24	4.0	4
CSCCC(NC(=O)c1ccccc1)C(=O)NCCCn1nc(C)cc1C (stereo not given)	6	8	3	3552	-18	2.2	x
COc1cc(/C=C/C(=O)OCC(=O)NC(=O)NC23CC4CC(CC(C4)C2)C3)ccc1OCC#N	1	2	-11	2020	-17	4.8	6
CCN(c1ccccc1)S(=O)(=O)c1ccc(Cl)c(NC(=O)CN2C(=O)NC3(CCCC3)C2=O)c1	13	7	1	4570	-22	9.3	-6
CCSc1nnc(NC(=O)C2CCN(S(=O)(=O)c3ccccc3C(F)(F)F)CC2)s1	-1	13	-4	1922	-29	3.8	10
O=c1c2ccccc2nc(NN=Cc2ccc(O)cc2)n1O	0	-20	3	x	x	10	x
O=C1C(Cl)=C(NS(=O)(=O)c2ccc([N+](=O)[O-])cc2)C(=O)c2ccccc21	17	8	25	4288	-62	24	-2
CC1CCCCN1C(=O)COC(=O)c1cc([N+](=O)[O-])ccc1N1CCOCC1 (stereo not given)	11	4	0	6360	-7	1.2	2
O=C(Nc1ccc2nc(-c3cccs3)[nH]c2c1)c1ccco1	17	19	-6	5472	-62	6.3	5
CCOc1cc(S(=O)(=O)NCC2OCCc3ccccc32)c(OCC)cc1-n1cnnn1 (stereo not given)	9	9	0	6221	-16	4.1	0
Cc1ccc(NC(=O)N(Cc2cccs2)Cc2cc3cc4c(cc3[nH]c2=O)OCO4)cc1	4	9	3	x	x	-9.8	2
CCOC(=O)c1nn(-c2cccc(OC)c2)c2nc(CC)c(C#N)c(=O)n12	-2	-6	-4	2765	-23	-6.1	12
Cc1ccc(C(C)NC(=O)c2ccc3c(c2)OCO3)cc1C (stereo not given)	7	9	-3	6543	-24	-0.1	-6
Cc1cccc(NP(=O)(Oc2ccccc2F)Oc2ccccc2F)c1	12	3	-39	6663	-21	-1.5	-4
Cc1ccc(-n2c(C)cc(/C=C3\SC(=O)NC3=O)c2C)cc1	3	-5	6	3741	-51	1.9	8
Cc1ccc(NC(=O)CSc2ccc(-c3ccccn3)nn2)c(C)c1	10	5	2	6423	-13	-0.6	6
CC(NC(=O)c1cc(Br)cs1)C1CCCO1 (stereo not given)	x	x	0	4047	11	2.0	0
Cc1ccc(-c2nc(-c3ccncc3)no2)c(Cl)c1	4	13	-10	3789	-3	5.8	2
COc1ccc2nc(C)cc(SCC(=O)NNC(=O)COc3cccc4ccccc34)c2c1	4	4	6	2517	-5	5.5	2
CCc1cc2c(=O)n(CCCOC)c(SCC(=O)Nc3oc(C)c4c(C)n[nH]c(=O)c34)nc2s1	6	0	0	5180	-6	2.3	-4
CCOCCn1c(CN2CCN(CC)CC2)nc2c1c(=O)n(C)c(=O)n2C	15	11	-7	5617	-5	-7.6	-6

Entries of single compounds from above. Screens in order: Mtb hypoxia rep	Mtb hypoxia rep growth	ugtP null kill	Bead autofluor	PrP UTR inh	RN4220 kill	BJeLR lethal
Entry for `CCC(=NCCCn1ccnc1)c1c(O)n(Cc2ccccc2)c(=O)[nH]c1=O` : 4	-6	-2	9730	-18	-0.6	2
Entry for `C=CCC1CCCC(=O)N2CCC(O)C12` (stereo not given) : 20	14	1	x	x	4.9	x
